# Screens from PubChem.
# gsp antagonist: antagonists of gsp mutant (McCune-Albright syndrome) | gsp-mutant cells, cAMP HTRF, 30 min; control for the full effect not named in the record | Potency, µM (highest dose often 76.9 µM), inactives show at the highest dose activity change, negative = inhibition, usual class: inhibitors | 0.4% of 340,000 active | AID 624288; active = falling curve of any shape with a large fitted effect; inconclusive = falling curve, mostly with a smaller effect; inactive = flat or rising curve; cell line not stated here;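 further: intracellular cAMP measured with PDE inhibitor Ro 20-1724 present during compound exposure; potency means the concentration at half of the fitted maximal effect; on the % scale 0 is the no-effect control and ±100 the full control effect; nearly all actives have a fitted effect of over 65% in size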
#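 G418-selected cells were plated in DMEM/10% FBS for 16-24 h at 37C, then treated with compounds plus the PDE inhibitor […] (300 uM solution added) for 30 min at 37C. Intracellular cAMP was measured by HTRF after 30 min lysis at room temperature.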
# TRPV1 potentiator: human TRPV1 potentiation. Q8NER1. TRPV1-expressing cells, Fluo-8 calcium influx, capsaicin EC20 potentiation; host cell line not named in the record; control for the full effect not named in the record. potentiation, % at 8.33 µM. 0.02% of 320,000 active; active means potentiation above 80%; inconclusive means 30% to 80%; inactive means below 30%; further: 0% is about no effect
# Target sequence (Q8NER1 whole entry, looked up): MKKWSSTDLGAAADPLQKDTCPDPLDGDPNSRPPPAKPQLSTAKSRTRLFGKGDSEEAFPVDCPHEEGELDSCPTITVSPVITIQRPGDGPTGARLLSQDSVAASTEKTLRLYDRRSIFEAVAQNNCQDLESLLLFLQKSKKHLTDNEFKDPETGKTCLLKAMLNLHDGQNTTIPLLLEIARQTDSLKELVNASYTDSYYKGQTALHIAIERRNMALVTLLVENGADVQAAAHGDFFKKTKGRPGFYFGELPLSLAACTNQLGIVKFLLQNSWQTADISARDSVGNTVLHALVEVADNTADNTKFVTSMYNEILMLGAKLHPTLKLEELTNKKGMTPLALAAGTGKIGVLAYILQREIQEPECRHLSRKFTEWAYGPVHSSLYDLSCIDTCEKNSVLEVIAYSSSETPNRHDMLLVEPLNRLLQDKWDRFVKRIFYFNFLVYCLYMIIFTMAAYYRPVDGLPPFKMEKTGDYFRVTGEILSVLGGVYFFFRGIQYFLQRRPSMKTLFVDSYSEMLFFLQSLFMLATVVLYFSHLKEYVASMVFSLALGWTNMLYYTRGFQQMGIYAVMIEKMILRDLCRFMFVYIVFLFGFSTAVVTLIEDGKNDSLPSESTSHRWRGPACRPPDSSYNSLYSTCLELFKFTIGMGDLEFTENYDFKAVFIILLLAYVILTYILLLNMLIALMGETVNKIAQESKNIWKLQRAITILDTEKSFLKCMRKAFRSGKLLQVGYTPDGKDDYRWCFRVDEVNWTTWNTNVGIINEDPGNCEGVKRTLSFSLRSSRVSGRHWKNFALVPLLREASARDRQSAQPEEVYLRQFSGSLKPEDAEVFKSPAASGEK
#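 Cells expressing TRPV1 were dye-loaded with Fluo-8 and read kinetically: 10 s baseline, 3 min after compound (agonist portion), then 2 min after EC20 capsaicin (allosteric enhancer portion). Calcium-bound dye fluorescence at 480/520 nm.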
# Menin MLL FP FL: inhibitors of human menin-MLL interaction, wild-type MLL peptide | Fluorescence polarization, fluorescein-MLL peptide displacement from menin | FP activity change, % at 61.4 µM | 290,000 tested, under 10 active | AID 1766; inconclusive = falling polarisation curve, or a change in total fluorescence; inactive = total fluorescence flat and polarisation flat or rising; no compound was filed as active; the % refers to the polarisation; negative = inhibition;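 further: % of control where 0% means no effect; inhibitors lower the polarisation; unlabelled MLL peptide was the positive control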
# ClpP mod: qHTS Assay for Activators of ClpP. purified B. subtilis ClpP, FRET peptide cleavage, 20 min. 1.9% of 340,000 active. AID 651965, 2013. Potency, µM (series often up to 57.5 µM), for the others: at the highest dose activity change, negative = active; active = well fitted falling curve with a large enough effect; inconclusive = small, poorly fitted or top-dose-only effect; inactive = no such curve, though single readings can be large or run the other way; further: potency means the concentration at half of the fitted maximal effect; the source files actives as falling curves though it sought activators and does not explain the sign; nearly all actives have a fitted effect of over 65% in size; many hits overshoot -100%
# Target sequence (P80244 whole entry, looked up): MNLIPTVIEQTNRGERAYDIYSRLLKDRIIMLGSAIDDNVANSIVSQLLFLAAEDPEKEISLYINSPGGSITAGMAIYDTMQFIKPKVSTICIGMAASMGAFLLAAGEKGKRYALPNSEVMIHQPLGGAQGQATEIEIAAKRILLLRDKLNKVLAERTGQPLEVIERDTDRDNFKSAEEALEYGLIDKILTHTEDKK
#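 Buffer: 100 mM Tris/HCl pH8, 100 mM KCl, 0.05% low protease BSA, 2.5% glycerol, 0.01% Tween-20. ClpP 10 microg/mL final; 20 min RT; delta FRET normalized to ADEP and DMSO controls.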
# CtBP-E1A inh: inhibitors of CtBP/E1A interaction | AlphaScreen GST-E1A/His-CtBP binding, 1536-well; active compounds read low; control for the full effect not named in the record | activity change, % (test concentration not listed) | 0.49% of 340,000 active | AID 651724; in the data active means activity change below about -65%; inconclusive means about -30% to -65%; inactive means above about -30%; further: on the % scale 0 is the no-effect control and ±100 the full control effect
#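 Protein mix (5X: 125 nM each GST-E1A, His-CtBP) was incubated with pinned compound 2 h at 37 deg C in dark, in 50 mM Tris pH 8.0 buffer with 300 mM NaCl. Glutathione donor and nickel acceptor beads followed; AlphaScreen signal read after 1 h.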
# gsp ag: activates gsp, the McCune-Albright syndrome mutation | gsp mutant cells, cAMP HTRF, 30 min; control for the full effect not named in the record | Potency, µM (top dose mostly 76.9 µM), inactives show top-dose activation (cAMP increase), usual class: activators | 0.13% of 340,000 active | AID 624287; active = well fitted activation curve with a large enough effect; inconclusive = small, poorly fitted or top-dose-only effect, or another doubt; inactive = no such curve, though single readings can be large or run the other way; cell line not stated here;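 further: phosphodiesterase inhibitor Ro 20-1724 added with compounds to block cAMP breakdown; potency means the concentration at half of the fitted maximal effect; nearly all actives have a fitted effect of over 60% in size; about a fifth of the inactives were tested at one dose only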
#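 Cells stably selected in G418 were plated at 2000/well, grown 16-24 hr, then given compounds in DMSO with the PDE inhibitor […] (300 uM solution added) for 30 min at 37C; cAMP was read by HTRF.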
# Sfp PPTase inh: inhibitors of Bacillus subtilis Sfp phosphopantetheinyl transferase; Biochemical Sfp PPTase activity, qHTS; AID 1490; Potency, µM, without a hit: max response, negative = inhibition, usual class: inhibitors; 3.5% of 310,000 active; Q9F4F7; active means well fitted inhibition curve with a large enough effect; inconclusive means small, poorly fitted or top-dose-only effect, or another doubt; inactive means no such curve, though single readings can be large or run the other way;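 further: the enzyme is Sfp with the accession as filed and its product quenches rhodamine fluorescence; potency means the concentration at half of the fitted maximal effect; 0% = enzyme reaction without inhibitor and -100% = no enzyme wells; top concentration of the series not given in the record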
#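 Sfp 15 nM + cpd, 15 min RT; start w/ rhodamine-CoA 5 uM, BHQ-2-YbbR 12.5 uM (final); 50 mM Hepes pH 7.6, 10 mM MgCl2, 0.01% NP-40, 0.01% BSA; read 525/598 nm at 0 and 30 min.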
# Starred values were filed as active, the others as inactive; u = inconclusive; x = no result given; & = joins results of further samples; [ ] = dose if it differs, or a comment. Compounds as they come. Share with any hit: about 5.3%.
SMILES	TRPV1 potentiator	ClpP mod	gsp ag	Sfp PPTase inh	CtBP-E1A inh	Menin MLL FP FL	gsp antagonist
O=C(Nc1cccc(F)c1)c1cccc(S(=O)(=O)N2CCOCC2)c1	-7	-0.5%	-19%	5%	1	0.2	-4%
N#Cc1ccccc1S(=O)(=O)N1CCN(CC(O)c2ccccc2)CC1 (stereo not drawn)	30	u	-6%[15.4 µM]	-21%	-3	-2.5	3%
CCn1c(C(C)NC(=O)c2cccs2)nc2ccccc21 (stereo not drawn)	-10	-0.2%	-51%[inhibitor]	6%	2	1.1	9%
Cc1ccc(N(CC(=O)O)S(=O)(=O)c2cccc3nonc23)cc1	4	0.0%	13%	27%	-2	4.1	12%
Cc1cc2c(c(=O)o1)C1(C(=O)N(CC(=O)O)c3ccccc31)C(C#N)=C(N)O2 (stereo not drawn)	0	-7.0%	-6%	-7%	-3	u	4%
CCOc1ccc(C(CC(=O)O)NC(=O)c2cccs2)cc1OC (stereo not drawn)	1	x	-1%[15.4 µM]	12%	-1	-0.8	16%
COc1ccc(CCNC2=CC(=O)CC(C)(C)C2)cc1	-13	x	-1%	1%	12	-8.3	-4%
COc1ccc(C2=NCCn3nc4cc(OC)ccc4c32)cc1	u	-4.4%	x	x	-11	x	-12%
CCc1nnc(NC(=O)C2CCCN2C(=O)Nc2ccc(C)cc2)s1 (stereo not drawn)	9	x	8%	25%	4	x	1%
CC(C)Oc1ccccc1NC(=O)CSc1nccn1C	-4	-3.5%	u	10%	-6	0.3	10%
CC1CN(C(=O)c2ccccc2OCc2ccc(Cl)cc2Cl)CC(C)O1 (stereo not drawn)	-21	2.0%	-5%	x	5	x	-4%
Cc1c(Cl)cccc1NC(=O)CNC(=O)CCS(=O)(=O)c1ccc(F)cc1	-5	-1.2%	-8%	x	x	x	3%
CCn1c(CNc2nc3ccccc3n2C(C)C)nc2ccccc21	-11	-0.7%	u	10%	-1	-0.5	-7%
Cc1cc(C)nc(NC(=S)NC(=O)c2ccccc2)n1	8	-0.2%	6%[15.4 µM]	10%	2	-2.9	-11%
Cc1cc(C)c2c(CC(=O)O)c(C)[nH]c2c1	1	x	-20%[15.4 µM]	-8%	-10	2.8	-6%
CCC1=NN2C(=N)/C(=C\c3ccc(OCCOc4ccccc4)c(OC)c3)C(=O)N=C2S1	12	x	x	12%	x	3.0	x
CCOC(=O)c1c(C)nc(C)c(C(=O)OCC)c1-c1cccc([N+](=O)[O-])c1	x	0.8%	15%	x	3	x	x
COc1ccc(N(CC(=O)Nc2ccc(F)cc2F)S(=O)(=O)c2c(C)nn(C)c2C)cc1	-8	-0.9%	-14%	4%	-3	-7.6	11%
O=C(NC(=S)Nc1ccccc1N1CCOCC1)c1cccs1	-12	0.4%	-18%	2%	-29	2.9	34%[activator]
O=C1c2ccccc2C(=O)N1OS(=O)(=O)c1ccc(F)cc1	-4	4.0%	4%	8.9µM*	x	2.2	-1%
CCOC(=O)C(CC)/C(C)=N\NC(=O)CCC(=O)Nc1ccc(Cl)cc1Cl (stereo not drawn)	8	0.7%	-3%	34%[activator]	x	-0.9	-4%
CCCCC(NC(=O)Cc1c(C)c2cc3c(C)c(C)oc3c(C)c2oc1=O)C(=O)O (stereo not drawn)	-11	u	-3%	4%	-27	-9.9	-3%
CCCc1cc(C(=O)OC)c(NC(=O)CCC(=O)O)s1	6	x	7%[15.4 µM]	5%	-1	-2.4	-22%
CC1=CC(C)C2COC(c3ccc[n+](C)c3)C1C2C (stereo not drawn)	9	2.6%	10%	8%	2	3.9	8%
O=C(NNC(=O)c1ccccc1Cl)c1ccncc1	4	-4.9%	5%	0%	-2	-0.9	18%
Cc1ccc(C)c(S(=O)(=O)ON2C(=O)c3ccccc3C2=O)c1	-3	x	-13%	18µM*	8	2.7	13%
CC(=O)c1nnn(-c2ccc([N+](=O)[O-])cc2C)c1C	-14	x	-6%[15.4 µM]	7%	x	0.6	3%
CNC(=O)COc1ccc(S(=O)(=O)Nc2ccccc2)cc1	-6	x	u	12%	-11	1.2	1%
COc1cc(OC)c(N(C)C(=O)c2cc3c(s2)-c2ccccc2S(=O)(=O)C3)cc1Cl	x	-8.4%	7%	x	-10	x	0%
Cc1nc2ccc(NC(=O)Cc3cccs3)cc2s1	12	1.7%	2%	6%	-4	1.6	4%
O=C(NCC1CCCO1)c1ccc2c(c1)N(Cc1ccc(Cl)cc1)CCS2 (stereo not drawn)	x	3.9%	-15%	x	4	x	x
S=C(NCCc1ccccc1)NCCN1CCOCC1	9	x	u	4%	8	0.1	7%
CCOC(=O)C1=C(C(F)(F)F)Nc2ncnn2C1c1cc(OC)c(OC)cc1OC (stereo not drawn)	2	0.5%	u	3%	2	x	-9%
O=C(Cc1ccccc1[N+](=O)[O-])NCCC1=CCCCC1	-11	x	-3%[15.4 µM]	16%	4	0.9	4%
COc1ccc(-n2c(Cc3cccn3C)nnc2SCC(=O)N2CCCC2)cc1	-2	3.7%	5%	-20%	-10	0.0	-3%
CCCn1c(SCC(=O)NC23CC4CC(CC(C4)C2)C3)n[nH]c1=O	10	2.3%	-2%	-12%	0	3.4	12%
Cc1ccc2c(c1)nc(NCCCO)n2C	6	-1.1%	-2%	11%	1	-0.3	0%
CSc1nsc(SCC(=O)N2CCCCC2)n1	-22	x	0%[15.4 µM]	8%	1	-0.3	7%
COc1ccc(C(=O)OCC(=O)NCC2CCCCC2)cc1S(=O)(=O)N1CCCc2ccccc21	2	-0.6%	10%	28%	0	-1.5	-5%
CCN1CCN(C(=O)N(CC(=O)Nc2ccc(C(N)=O)cc2)S(=O)(=O)c2ccc(C)cc2)CC1	21	-6.8%	-32%[inhibitor]	x	8	x	12%
CN1C(=O)N(c2nnc(C(C)(C)C)s2)C(=O)C1c1ccccc1 (stereo not drawn)	2	x	-9%	22%	-7	0.2	1%
O=C(CSc1ccccc1)NCc1ccco1	0	-1.3%	-21%	15%	-2	2.0	2%
Cc1cccc(N2CCN(C(=O)c3noc4c3COc3ccc(C)cc3-4)CC2C)c1 (stereo not drawn)	1	-22%&-2.8%	11%	-10%	-5	0.3	-17%
O=C(N/N=C/c1ccc[nH]1)c1sc2ccccc2c1Cl	-13	-0.1%	-9%	6%	-25	11	0%
Cc1sc2nc(CN3CCOCC3)nc(NCCc3ccccc3)c2c1C	0	7.9%	0%	3%	4	1.3	-2%
Cc1nc(SCC(=O)NCC2CCCO2)nc(C)c1C (stereo not drawn)	x	0.1%	-15%	x	2	x	4%
COc1ccc(OC)c(NC(=O)Cc2cccs2)c1	-4	1.1%	-2%[15.4 µM]	12%	5	1.9	13%
N#Cc1c(-n2cccc2)cccc1-n1cccc1	1	0.4%	-51%[inhibitor]	15%	-17	1.7	-3%
CC(C)(C)C(=O)NC1CC2CCCC(C1)N2C(=O)Nc1ccccc1 (stereo not drawn)	6	-2.1%	-3%[15.4 µM]	3%	-7	-0.2	7%
COc1ccc(C(=O)NC(Cn2ccnc2)C(C)(C)C)cc1OC1CCN(C(C)C)CC1 (stereo not drawn)	-1	u	-3%[15.4 µM]	14%	0	x	3%
Cc1ccc(NS(=O)(=O)c2ccc(OCC(=O)NCc3ccccn3)cc2)cc1	x	-0.8%	-2%	x	11	x	8%
Cc1nn(-c2ccc(C(=O)Nc3nnc(C4CC4)s3)cc2)c(C)c1Cl	4	-5.3%	0%	6%	-1	-0.4	1%
Cc1ccc(CN2CCN(CCCn3cccn3)CC2CCO)cc1 (stereo not drawn)	-1	x	16%	15%	-1	-3.3	7%
CCC1Oc2ccc(C)cc2N(CC(=O)NCc2cc(OC)ccc2OC)C1=O (stereo not drawn)	5	1.7%	-5%	-1%	9	3.9	-1%
CCOC(=O)C1=C(CSc2nccn2C)NC(=O)NC1c1ccc2c(c1)OCO2 (stereo not drawn)	-2	-5.9%	-21%	3%	2	0.3	5%
COc1ccccc1C(=O)COC(=O)CN1C(=O)NC2(CCCC2)C1=O	-18	-2.1%	-1%[15.4 µM]	x	6	x	14%

# Next section:
SMILES	TRPV1 potentiator	ClpP mod	gsp ag	Sfp PPTase inh	CtBP-E1A inh	Menin MLL FP FL	gsp antagonist
COc1cc(C(=O)N2CCC(C(N)=O)CC2)ccc1OCc1c(C)noc1C	x	x	u	x	0	x	3%
CCCCOc1ccc(C(O)C(CN2CCCCC2)c2ccccc2)cc1 (stereo not drawn)	-2	x	-14%[15.4 µM]	14%	0	-1.2	12%
Cc1c(NCc2cccnc2)cccc1C(=O)O	3	x	-2%	6%	5	-7.4	1%
Cc1cccc(C)c1Nc1nnc(SCc2nc3ccccc3s2)s1	-3	14µM*	19%	u	-6	0.8	1%
CCOc1ccc(C(=O)Nc2nnc(SCC(=O)NCC3CCCO3)s2)cc1 (stereo not drawn)	5	-5.2%	u	12%	-13	-5.7	3%
COCCCNC(=O)CCS(=O)(=O)Cc1ccc(C)cc1	0	0.6%	-24%	5%	15	0.7	5%
O=C(NCc1ccco1)c1ccc(COc2cc(Cl)ccc2Cl)cc1	7	1.6%	7%	u	9	3.4	-10%
O=C(O)C[C@@H](CNC(=O)COc1ccc2ccc(=O)oc2c1)c1ccc(Cl)cc1	1	3.3%	u	23%	-1	x	-12%
O=C(c1ccccc1F)N1CCN(c2cccc(C(F)(F)F)c2)CC1	-21	2.3%	-44%[inhibitor]	11%	4	-1.3	-30%
C#CCN1C(=O)C(O)(CC(=O)c2cccc(OC)c2)c2ccccc21 (stereo not drawn)	-13	1.3%	-23%	4%	6	1.8	10%
COc1ccc(OCCOC(=O)CCS(=O)(=O)c2ccc(C)cc2)cc1	-3	-2.2%	-16%	x	-18	x	-11%
CCSc1ccccc1C(=O)NC1CCCCC1	-11	x	-11%[15.4 µM]	-6%	-12	-0.5	3%
